YB-1 expression: inhibitors of YB-1 gene expression, primary screen, cell-based, fluorescence | U2OS, qRT-PCR YB-1 vs CDIP delta delta Cp, 16 h; active compounds read high; zero = DMSO, each unit about twofold | delta delta Cp (YB-1 minus CDIP) (no concentration beside the values) | 30,000 tested, 0.37% active | AID 434959, 2010;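 active = delta delta Cp rounded down to an integer at or above 3, about 3 SD of DMSO wells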;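 note: higher means less YB-1 transcript or more CDIP transcript relative to DMSO; stock transfer was 100 nL into about 100 µL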
PD-1 reverse act: activators reversing PD-1 mediated T-cell inhibition, primary screen, luminescence, primary human CD4 T cells, PD-L1 beads; activation, % (test concentration not listed); CellTiter-Glo 96 h; 29,000 tested, under 10 active;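 active = replicate mean of 50% or more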;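 note: 0% = median vehicle wells and 100% = positive control; 100 nL library stock added to about 50 µL; numbers are from one replicate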
MITF inhib: inhibitors of MITF, primary screen, MITF inhibitor project, cell-based, luminescence; TRPM1 promoter luciferase, 24 h; inhibition, % (no concentration beside the values); 37,000 tested, 0.28% active; AID 2240, 2010;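 active = most replicates at 85% or more, or half of them and the mean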;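 note: human melanocyte line stably carrying TRPM1 promoter luciferase reporter; 0% = vehicle wells and 100% = a positive control; the first replicate is given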
Shh pathway inh: Hedgehog pathway signaling inhibitors, primary screen, luminescence, Shh-LIGHT2 cells, Gli-luciferase | Shh-LIGHT2 Gli-luciferase reporter, 30 h | inhibition, % (no concentration beside the values) | 22,000 tested, 2.1% active | AID 2313, 2010;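 active = replicate mean of 65% or more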;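 note: pathway switched on by Shh-conditioned medium diluted 1 in 25 in low serum; 100 nL library stock added to about 40 µL; 0% = median of neutral wells and 100% = positive control level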
Active calls of the source: *; . = not tested or not shown. The list is partial. The share of hits here may be higher or lower than overall.

canonical_smiles	YB-1 expression	PD-1 reverse act	MITF inhib	Shh pathway inh
C[C@H](CO)N1C[C@H](C)[C@H](CN(C)C(=O)Nc2ccccc2)Oc2ccc(NS(=O)(=O)c3ccc(F)cc3)cc2C1=O	-0.22	6.6	-3	.
C[C@@H]1CN([C@H](C)CO)C(=O)c2cc(NS(=O)(=O)c3ccccc3)ccc2O[C@H]1CN(C)C(=O)NC1CCCCC1	0.1	-1.0	-7	17
CCc1ccccc1NC(=O)c1ccccc1S(=O)(=O)c1ccccc1[N+](=O)[O-]	.	-0.2	11	.
CSc1ncc(Cl)c(C(=O)Nc2nnc(SC)s2)n1	.	2.5	19	.
Cc1noc(C)c1S(=O)(=O)Nc1ccc2c(c1)CC(=O)N([C@H](C)CO)C[C@@H](C)[C@@H](CN(C)C(=O)NC(C)C)O2	0.059	1.3	-7	-7
Cc1cc(C)c(NC(=O)CSc2nnc(-c3ccccc3Cl)n2C)c(C)c1	.	0.6	-5	.
COc1ccc(NC(=O)Nc2ccc3c(c2)C(=O)N([C@H](C)CO)C[C@H](C)[C@@H](CN(C)C(=O)Nc2ccc(OC)cc2)OCCCC[C@@H](C)O3)cc1	-0.065	-1.0	-7	-33
Cc1noc(C)c1S(=O)(=O)N(C)C[C@@H]1Oc2ccc(NC(=O)CCCCCC(=O)Nc3ccccc3N)cc2CC(=O)N([C@@H](C)CO)C[C@@H]1C	0.25	-0.8	-15	.
CCCNC(C)(C)COC(=O)c1ccccc1	0.72	.	11	-33
NC(=NC(=O)c1cccc(Cn2cc(C(F)(F)F)ccc2=O)c1)c1ccc(Cl)cc1	-0.13	-4.5	20	8

canonical_smiles	YB-1 expression	PD-1 reverse act	MITF inhib	Shh pathway inh
C[C@H]1CN([C@@H](C)CO)C(=O)c2cc(NS(=O)(=O)c3ccccc3)ccc2O[C@@H]1CN(C)CC1CC1	-0.31	0.7	-2	18
CCN(CC)CCNC(=O)c1ccc(NC(C)=O)cc1	0.16	.	-1	-35
C[C@H]1CN([C@@H](C)CO)C(=O)Cc2cc(NC(=O)C3CC3)ccc2O[C@@H]1CN(C)C(=O)Nc1ccccc1	-0.37	0.6	-1	4
C[C@H]1CN([C@@H](C)CO)C(=O)Cc2cc(NC(=O)NC3CCCCC3)ccc2O[C@H]1CN(C)Cc1ccc(Oc2ccccc2)cc1	-0.17	.	28	28
C[C@@H]1CN([C@@H](C)CO)C(=O)c2cccc(NS(C)(=O)=O)c2O[C@@H]1CN(C)C(=O)Nc1ccc2c(c1)OCO2	1.5	2.1	-6	-45
C[C@H](CO)N1C[C@H](C)[C@@H](CN(C)C(=O)Nc2ccc3c(c2)OCO3)Oc2ccc(NC(=O)Nc3ccc(F)cc3)cc2C1=O	-0.27	-1.2	-10	-8
Cc1noc(C)c1S(=O)(=O)Nc1ccc2c(c1)CC(=O)N([C@H](C)CO)C[C@@H](C)[C@H](CN(C)S(=O)(=O)c1ccccc1)O2	0.023	1.7	-9	-1
CC(C)NC(=O)N(C)C[C@@H]1Oc2ccc(NC(=O)Cn3cnnn3)cc2C(=O)N([C@@H](C)CO)C[C@@H]1C	0.12	1.1	-6	3
C[C@@H]1CN([C@H](C)CO)C(=O)Cc2cc(NC(=O)CCN3CCOCC3)ccc2O[C@@H]1CN(C)Cc1ccc2c(c1)OCO2	0.23	0.0	-8	-15
Cc1noc(C)c1S(=O)(=O)Nc1ccc2c(c1)C(=O)N([C@@H](C)CO)C[C@@H](C)[C@H](CN(C)C(=O)Nc1ccc3c(c1)OCO3)O2	-0.071	0.8	-8	.

canonical_smiles	YB-1 expression	PD-1 reverse act	MITF inhib	Shh pathway inh
Cc1noc(C)c1S(=O)(=O)Nc1ccc2c(c1)C(=O)N([C@@H](C)CO)C[C@H](C)[C@H](CN(C)C(=O)NC1CCCCC1)O2	-0.15	-1.6	-1	-3
COc1ccc(CN(C)C[C@H]2OCCCC[C@@H](C)Oc3ccc(NC(=O)CCCCCC(=O)Nc4ccccc4N)cc3C(=O)N([C@H](C)CO)C[C@@H]2C)cc1	0.14	-0.8	-11	.
CSc1c(C#N)c(-c2ccc(Cl)cc2)nn1C	-0.14	-0.5	-13	-57
CC(C)=CCc1c(-c2ccc(O)cc2O)oc2c3c(cc(O)c2c1=O)OC(C)(C)C=C3	0.53	-1.3	4	2
NS(=O)(=O)c1cc2c(cc1Cl)NC(CC1CCCC1)NS2(=O)=O (configuration not stated)	0.64	.	-3	-10
C[C@H](CO)N1C[C@H](C)[C@@H](CN(C)C(=O)NC2CCCCC2)Oc2ccc(NC(=O)Cn3cnnn3)cc2C1=O	0.17	0.1	0	.
C[C@H](CO)N1C[C@H](C)[C@H](CN(C)CC2CCCCC2)Oc2c(NC(=O)c3ccncc3)cccc2C1=O	-0.88	0.3	-1	1
CCOc1ccc(-n2nc3ccc(NC(=O)COc4ccccc4Cl)cc3n2)cc1	.	-0.8	2	.
Cc1nnc(SCC(=O)c2ccc([N+](=O)[O-])cc2)s1	.	-3.4	-9	.
COc1ccc(NC(=O)N(C)C[C@H]2Oc3ccc(NC(=O)Nc4ccc(F)cc4)cc3C(=O)N([C@@H](C)CO)C[C@H]2C)cc1	-0.039	.	-38	-99

Complete entries from above. Values in the order: YB-1 expression	PD-1 reverse act	MITF inhib	Shh pathway inh
`NS(=O)(=O)c1cc2c(cc1Cl)NC(CC1CCCC1)NS2(=O)=O` (configuration not stated) is entered as 0.64	.	-3	-10
`Cc1noc(C)c1S(=O)(=O)Nc1ccc2c(c1)C(=O)N([C@@H](C)CO)C[C@H](C)[C@H](CN(C)C(=O)NC1CCCCC1)O2` is entered as -0.15	-1.6	-1	-3
`C[C@H](CO)N1C[C@H](C)[C@@H](CN(C)C(=O)NC2CCCCC2)Oc2ccc(NC(=O)Cn3cnnn3)cc2C1=O` is entered as 0.17	0.1	0	.
`CCOc1ccc(-n2nc3ccc(NC(=O)COc4ccccc4Cl)cc3n2)cc1` is entered as .	-0.8	2	.
`C[C@H](CO)N1C[C@H](C)[C@H](CN(C)CC2CCCCC2)Oc2c(NC(=O)c3ccncc3)cccc2C1=O` is entered as -0.88	0.3	-1	1

Later entries.
canonical_smiles	YB-1 expression	PD-1 reverse act	MITF inhib	Shh pathway inh
CCc1ccc(-c2nc3cc(NC(=O)COc4ccccc4[N+](=O)[O-])ccc3o2)cc1	.	-0.5	-64	.
O=S(=O)(NCCc1c[nH]c2ccccc12)c1ccc(Cl)c(Cl)c1	-0.14	-2.8	7	-50
Cc1ccc(S(=O)(=O)N(C)C[C@@H]2Oc3c(NS(=O)(=O)c4c(C)noc4C)cccc3C(=O)N([C@@H](C)CO)C[C@@H]2C)cc1	-0.5	.	-1	89*
C[C@H](CO)N1C[C@H](C)[C@H](CN(C)S(C)(=O)=O)Oc2c(NC(=O)Nc3ccccc3)cccc2C1=O	-0.13	.	-7	15
COc1ccc(CN(C)C[C@H]2Oc3c(NS(=O)(=O)c4ccc(Cl)cc4)cccc3C(=O)N([C@H](C)CO)C[C@H]2C)cc1	0.12	0.2	-7	3
CC(C)NS(=O)(=O)c1ccc(OCC(=O)N2CCOCC2)c(Cl)c1	.	1.2	0	.
CNC[C@H]1Oc2ccc(NC(=O)c3ccncc3)cc2C(=O)N([C@@H](C)CO)C[C@H]1C	-0.18	1.2	2	9
C=C(COC(=O)C(C)C)C1Oc2cc(C(C)=O)ccc2C1OC(=O)C(C)C (configuration not stated)	-0.19	1.4	3	-11
C[C@H](CO)N1C[C@H](C)[C@@H](CN(C)S(C)(=O)=O)Oc2c(NC(=O)NC3CCCCC3)cccc2C1=O	-1.1	0.9	-9	-15
COc1ccc(NC(=O)Nc2cccc3c2O[C@H](CN(C)C(=O)Nc2c(C)noc2C)[C@@H](C)CN([C@H](C)CO)C3=O)cc1	-0.034	1.6	-6	-48

canonical_smiles	YB-1 expression	PD-1 reverse act	MITF inhib	Shh pathway inh
Cc1cccc(C2Sc3ccccc3N=C3c4ccccc4C(=O)C32)c1 (configuration not stated)	0.085	0.1	64	-14
C[C@@H]1CN([C@H](C)CO)C(=O)Cc2cc(NC(=O)Cn3cnnn3)ccc2O[C@H]1CN(C)CC1CC1	-0.11	.	-8	-26
O=C(CSc1nc2ccccc2c(=O)n1-c1ccc(Cl)cc1)Nc1ccccc1[N+](=O)[O-]	.	-2.1	26	.
C[C@@H]1CN([C@H](C)CO)C(=O)c2cc(NC(=O)Nc3ccc(C(F)(F)F)cc3)ccc2O[C@H]1CN(C)C	-0.19	1.6	-20	.
COc1ccc(N=C2SCC(=O)N2CCc2ccc(OC)c(OC)c2)cc1	0.1	-0.4	11	-1
Cc1noc(C)c1C(=O)NCCCn1ccnc1	.	-2.0	-10	.
Cc1noc(C)c1S(=O)(=O)Nc1ccc2c(c1)CC(=O)N([C@H](C)CO)C[C@@H](C)[C@@H](CN(C)C(=O)NC1CCCCC1)O2	0.69	-0.1	-6	-31
CC(C)NC(=O)N(C)C[C@H]1Oc2ccc(NC(=O)c3ccncc3)cc2C(=O)N([C@@H](C)CO)C[C@H]1C	-0.12	1.5	-4	-8
O=C(COc1cccc2ccccc12)Nc1ccccc1C(=O)O	.	1.9	-16	.
Cc1cccc(SCC(=O)Nc2ccc3c(c2)OCCO3)c1	0.31	0.6	-18	-14

canonical_smiles	YB-1 expression	PD-1 reverse act	MITF inhib	Shh pathway inh
C[C@@H]1CN([C@H](C)CO)C(=O)c2cccc(NC(=O)C3CC3)c2O[C@@H]1CN(C)C(=O)NC1CCCCC1	0.097	2.2	0	-200
C[C@@H]1Oc2c(c(O)c3c(c2C(CC(=O)O)c2ccccc2)OC(C)(C)C=C3)C(=O)[C@H]1C (some centres not stated)	0.43	.	.	16
Cn1c(SCC(=O)Nc2ccc(F)cc2)nnc1-c1ccc([N+](=O)[O-])cc1	.	0.5	-2	.
CNC[C@H]1Oc2ccc(NC(=O)Cc3ccccc3)cc2C(=O)N([C@H](C)CO)C[C@H]1C	0.26	-0.4	6	2
Clc1ccc(OCCCCSc2ncccn2)cc1	.	0.7	-77	.
COc1ccc(-c2cc(=O)c3c(O)c(OC)c(O[C@@H]4O[C@H](CO)[C@@H](O)[C@H](O)[C@H]4O[C@@H]4O[C@@H](C)[C@H](O)[C@@H](O)[C@H]4O)cc3o2)cc1	-0.12	2.2	-30	-10
COc1ccc(SCC(=O)Nc2ccccn2)cc1	-0.046	1.0	-3	-5
Cc1noc(C)c1S(=O)(=O)Nc1ccc2c(c1)C(=O)N([C@H](C)CO)C[C@@H](C)[C@@H](CN(C)C(=O)Nc1ccccc1)O2	-0.16	-0.6	-10	4
COc1cc2c(cc1NC(=O)CN(C)S(=O)(=O)c1ccc(C)cc1)oc1ccccc12	.	2.5	33	.
C[C@H](CO)N1C[C@H](C)[C@H](CN(C)C(=O)Nc2ccccc2)Oc2c(NC(=O)c3ccncc3)cccc2C1=O	-0.4	0.7	-5	-14

canonical_smiles	YB-1 expression	PD-1 reverse act	MITF inhib	Shh pathway inh
CCc1ccccc1NC(=O)CN(C)S(=O)(=O)c1ccc(Br)cc1	.	-1.8	11	.
C[C@H]1CN([C@@H](C)CO)C(=O)c2cccc(NC(=O)C3CCCCC3)c2O[C@H]1CN(C)Cc1ccc(C(F)(F)F)cc1	-0.53	-2.2	15	-12
COc1cc([C@@H]2c3cc4c(cc3[C@H](O)[C@H]3COC(=O)[C@@H]23)OCO4)cc(OC)c1OC	0.12	.	37	75*
CC(C)NC(=O)Nc1cccc2c1O[C@@H](CN(C)C(=O)Nc1ccccc1)[C@H](C)CN([C@H](C)CO)C2=O	0.33	0.4	-1	-4
COC(=O)c1ccccc1NC(=O)CSc1nc2ccc(C)cc2[nH]1	.	0.9	28	.
C[C@H](CO)N1C[C@H](C)[C@H](CN(C)C)Oc2ccc(NC(=O)Nc3ccc(F)cc3)cc2CC1=O	0.15	2.2	-1	10
Cc1cc(I)ccc1NC(=O)Cn1cc([N+](=O)[O-])cn1	.	2.0	-8	.
C[C@@H]1CCCCO[C@H](CN(C)S(=O)(=O)c2ccccc2)[C@@H](C)CN([C@H](C)CO)C(=O)c2cc(NC(=O)Nc3ccc(F)cc3)ccc2O1	0.61	-2.9	9	45
C[C@@H]1CN([C@H](C)CO)C(=O)c2cccc(NC(=O)c3nc4ccccc4s3)c2O[C@H]1CN(C)CC1CCCCC1	-0.074	-3.6	37	36
Cc1noc(C)c1NC(=O)Nc1ccc2c(c1)CC(=O)N([C@H](C)CO)C[C@@H](C)[C@@H](CN(C)C(=O)Nc1ccc(C(F)(F)F)cc1)O2	0.21	-0.4	-3	.

canonical_smiles	YB-1 expression	PD-1 reverse act	MITF inhib	Shh pathway inh
C[C@@H]1CN([C@@H](C)CO)C(=O)c2cccc(NS(=O)(=O)c3cccs3)c2O[C@@H]1CN(C)Cc1ccc(-c2ccccc2)cc1	-0.35	.	1	-5
Cc1ccc(S(=O)(=O)Nc2ccc3c(c2)CC(=O)N([C@H](C)CO)C[C@@H](C)[C@H](CN(C)C(=O)Nc2ccc(C(F)(F)F)cc2)O3)cc1	-0.17	.	-2	-26
O=C(O)COc1c(-c2ccccc2)oc2ccccc2c1=O	.	0.9	-27	.
C[C@@H]1CN([C@H](C)CO)C(=O)Cc2cc(NC(=O)CCN3CCOCC3)ccc2O[C@@H]1CN(C)Cc1ccncc1	-0.91	0.2	-9	.

Screening results (PubChem BioAssay)
